# Bioassay records from PubChem BioAssay.
# Measles inh: inhibitors of measles virus growth in infected cells; infected Vero cells, GFP fluorescence, 64 h; stronger effect = lower value; z-score (test concentration not listed); 33,000 compounds, 0.1% hits;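 active = z-score under -3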;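 also: score is relative to mean and SD of the compound wells of a plate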
# * marks the source's active call; other numbers are inactive results. Not all compounds are listed; count on the stated rates, not on these rows.
structure	Measles inh
O=C(COC(=O)c1ccc(N2Cc3ccccc3C2)cc1)c1ccc(-c2ccccc2)cc1	-0.64
CCc1ccc(-n2nc3ccc(NC(=O)c4cc(OC)c(OC)c(OC)c4)cc3n2)cc1	-1.1
COc1cccc(C(=O)Nc2ccc(Cl)c(-c3nc4cc(C)ccc4o3)c2)c1	-0.4
N/C(=N\c1nc2ccccc2o1)NC(=O)c1ccccc1Br	0.21
CCCC(=O)Nc1ccc2oc(-c3cccnc3)nc2c1	-0.94
O=C(Cn1c2ccccc2c(=O)c2ccccc21)Nc1ccc(OCc2ccccc2)cc1	1.76
CCOc1ccc(C(=O)Nc2ccc(C(=O)Nc3cccc4ccccc34)cc2)cc1Cl	-0.26
Cc1oc(CC(C)C)cc1C(=O)Nc1ccccc1C(=O)O	-0.04
COC(=O)C1=CNC=C(C(=O)OC)C1c1cc(Br)ccc1OC	0.55
CCc1ccc(C(=O)CC2(O)C(=O)N(CC)c3ccc(Br)cc32)cc1 (centres undefined)	0.17
CCOc1ccc(C2C(C(=O)OCCSCC)=C(C)NC3=C2C(=O)CCC3)cc1 (centres undefined)	-0.62
CC(=O)Nc1nonc1-c1nc2ccccc2n1CCC(C)C	-0.4
Cc1cc(C)cc(NS(=O)(=O)c2c(C)nn(C)c2C)c1	1.51
CN(C)c1cc[n+](C(=O)N2CCOCC2)cc1	-1.91
COc1ccc(NC(NC(C)=O)(C(F)(F)F)C(F)(F)F)c(OC)c1	-0.43
CCCCSc1nnc2c(n1)OC(c1ccc3c(c1)OCO3)N(C(C)=O)c1ccccc1-2 (centres undefined)	0.17
CCCNC(=O)C(=O)Nc1cccc(Cl)c1C	0.09
O=C(CC(NCc1ccccc1)C(=O)O)Nc1ccc(Cl)cc1 (centres undefined)	0.48
O=C(Nc1ccccc1Cl)c1ccc(C(F)(F)F)cc1	-0.48
COc1ccc(COC(=O)C2=C(C)NC3=C(C(=O)CC(c4cccs4)C3)C2c2ccc(Cl)cc2)cc1 (centres undefined)	-0.17
O=C(c1cc(-c2ccc3c(c2)OCO3)on1)N1CCN(C(c2ccccc2)c2ccccc2)CC1	-0.4
O=S(=O)(N=C(Nc1ccc2ccccc2c1)c1ccccc1)c1ccc(Cl)cc1	1.42
COc1ccc(OC)c(Nc2nc(-c3cc4c(ccc5ccccc54)oc3=O)cs2)c1	-0.86
O=C(c1cc2ccccc2o1)N1CCN=C1SCc1ccc(Br)cc1	-1.28
Cc1ccc(NS(=O)(=O)c2ccc3c(c2)CCN3C(=O)C2CC2)cc1F	-0.94

# Filtered by structure, those above with sulfur.
structure	Measles inh
CCOc1ccc(C2C(C(=O)OCCSCC)=C(C)NC3=C2C(=O)CCC3)cc1 (centres undefined)	-0.62
Cc1cc(C)cc(NS(=O)(=O)c2c(C)nn(C)c2C)c1	1.51
CCCCSc1nnc2c(n1)OC(c1ccc3c(c1)OCO3)N(C(C)=O)c1ccccc1-2 (centres undefined)	0.17
COc1ccc(COC(=O)C2=C(C)NC3=C(C(=O)CC(c4cccs4)C3)C2c2ccc(Cl)cc2)cc1 (centres undefined)	-0.17
O=S(=O)(N=C(Nc1ccc2ccccc2c1)c1ccccc1)c1ccc(Cl)cc1	1.42
COc1ccc(OC)c(Nc2nc(-c3cc4c(ccc5ccccc54)oc3=O)cs2)c1	-0.86
O=C(c1cc2ccccc2o1)N1CCN=C1SCc1ccc(Br)cc1	-1.28
Cc1ccc(NS(=O)(=O)c2ccc3c(c2)CCN3C(=O)C2CC2)cc1F	-0.94

# (further entries)
structure	Measles inh
Cc1ccc(S(=O)(=O)N2CCC(C(=O)NC(C)(C)C)CC2)cc1	0.77
Cc1cc(Nc2ccc3c(c2)OCCO3)c2cccc(C)c2n1	-1.69
CCN1CCCC1CNS(=O)(=O)c1cccc2cccnc12 (centres undefined)	0.48
CCOc1ccccc1C(=O)Nc1cccc(C)c1C	-0.36
Cc1ccc(C(C)C)c(OCC(=O)N2CCN(c3ccc([N+](=O)[O-])cc3)CC2)c1	-0.94
COc1ccc(N2CCN(C(=O)c3c[nH]c4ccc(S(=O)(=O)N5CCOCC5)cc4c3=O)CC2)cc1	-1.07
COc1ccc2nc3oc(C(=O)NCc4ccc(C)o4)cc3cc2c1	-0.65
COc1ccc(-c2cc(C(=O)NCCN3CCOCC3)no2)cc1OC	-0.37
O=C(NCc1ccccc1)C(=O)Nc1ccc2c(c1)OCO2	-0.88
COCCn1c(SCC(=O)c2ccc(Cl)cc2)nc2cc(C(=O)OC)ccc2c1=O	0.75
COc1cc(NC(=O)c2cc(-c3ccc(Cl)cc3)on2)c(OC)cc1Cl	-0.12
CN(CC(=O)NC1CCCCC1)S(=O)(=O)c1ccc(Br)s1	-0.16
CCOc1ccc(CN2CCC(N3CCN(c4ccccc4)CC3)CC2)cc1	1.78
Cc1cc(C)cc(-n2c(=O)c3sccc3n(CC(=O)Nc3ccccc3C)c2=O)c1	-0.78
CCNc1nc(NC(C)C)nc(SCCOc2ccc(Br)cc2)n1	-0.17
Cc1[nH]nc(SCC(=O)NCCc2ccccc2)c1[N+](=O)[O-]	0.05
CSc1nc(-c2ccccc2)cn1-c1ccc(F)cc1	-0.88
COC(=O)c1ccc(C(=O)OC)c(NC(=O)c2cc3cc(Cl)ccc3oc2=O)c1	-0.52
Fc1ccc(OCCn2c(COc3ccccc3)nc3ccccc32)cc1	-1.33
COc1ccc(NC(=O)C2CC(=O)N=C(N)S2)c(OC)c1 (centres undefined)	0.43
CC(=O)C(C(C)=O)c1cc(Nc2cccc(C)c2)c2c3c(onc13)-c1ccccc1C2=O	-0.45
CCOC(=O)C(NC(=O)c1ccc(OC)cc1)(Nc1ccccc1C(F)(F)F)C(F)(F)F (centres undefined)	-0.54
O=C1c2ccccc2C(=O)N1c1ccc(S(=O)(=O)Nc2cccc([N+](=O)[O-])c2)cc1	0.53
O=C(Nc1nc(-c2cccs2)cs1)c1cccc2ccccc12	-1.54
O=[N+]([O-])c1ccc(OCC(O)CNCC2OCCc3ccccc32)cc1 (centres undefined)	0.33

# Next part
Molecule	Measles inh
CC(=O)N1c2c(C)cccc2C(C)CC12CCCCCC2 (centres undefined)	0.08
O=C(Nc1ccc(Br)cc1)c1ccc2c(c1)C(=O)N(c1cccc([N+](=O)[O-])c1)C2=O	0.3
O=C(Nc1nc(-c2cccs2)cs1)c1ccc(Cc2ccccc2)cc1	-2.07
COc1ccc(-c2noc(CCC(=O)Nc3cccc(C(F)(F)F)c3)n2)cc1	-0.53
CCc1ccc(Nc2cc(C(=O)NCc3ccccn3)c3ccccc3n2)cc1	1.81
COc1ccc(Nc2nc3ccccc3c(=O)s2)cc1	1.46
O=C(O)c1cccnc1SCC(=O)N1CCCCCC1	2.25
Cc1ccc(N2CC(O)=C(c3nc4ccccc4s3)C2=N)cc1	0.75
COc1ccc2nc3oc(C(=O)N4CC(C)CC(C)C4)cc3cc2c1 (centres undefined)	-1.41
COc1ccc2cc3cc(C(=O)N(C)c4cc(C)ccc4C)oc3nc2c1	-0.47
COc1cc([N+](=O)[O-])cc(C=Nc2ccc3oc(-c4ccc(C(C)(C)C)cc4)nc3c2)c1O	0.52
COc1ccc(S(=O)(=O)N2CCN(CCC(=O)Nc3ccccc3F)CC2)cc1	0.61
CCCNC(=O)c1ccc2c(c1)ncn2-c1cccc(Cl)c1	0.29
COc1ccc(OCc2c(C#N)c3ccccc3n2C)cc1	-0.49
O=[N+]([O-])c1ccc2nonc2c1Nc1ccc(Oc2ccccc2)cc1	-0.18
Cc1cc(Oc2ccc([N+](=O)[O-])cc2)nc(NCc2ccccc2)n1	-0.06
COc1cccc(NC(=O)CSc2nc3nc(C)cc(C)n3n2)c1	-0.35
CCOC(=O)C1=C(N)N(c2cccc([N+](=O)[O-])c2)C2=C(C(=O)CC(C)(C)C2)C1c1cc(Br)cs1 (centres undefined)	-1.38
COc1ccccc1NC(=O)c1nn(-c2ccccc2OC)c(=O)c2ccccc12	-0.98
COc1ccc(C(=O)NCc2nnc(SCC(=O)c3ccc(Cl)cc3)o2)cc1	0.72
Cc1ccc(-c2ccc(=O)n(CC(=O)NCCCN3CCCCC3)n2)cc1	1.29
O=C(CCC1Nc2c3ccccc3nc(=S)n2C1=O)N1CCN(c2ccc(F)cc2)CC1 (centres undefined)	-0.25
Fc1ccc(-n2cc(-c3ccccc3)c3c(N4CCN(Cc5ccccc5)CC4)ncnc32)cc1	-1.23
COC(=O)C1=CN(C2CC2)C=C(C(=O)OC)C1c1ccc(OC)cc1OC	1.57
COc1cccc(-c2nn(C)c3sc(C(=O)NCCCN4CCCCCC4)cc23)c1	-1
O=C(NCC1CCCO1)c1ccc2c(c1)N(Cc1cccc(F)c1)C(=O)c1ccccc1S2 (centres undefined)	1
O=C(NCC1(c2ccccc2)CCOCC1)c1ccc(Br)o1	-1.3
CCOc1ccc(CCNS(=O)(=O)c2c(C)cc(C)cc2C)cc1OCC	-1.41
CC1CCCCN1C(=O)C1c2ccccc2C(=O)N(C)C1c1cccs1 (centres undefined)	-0.42
Cc1ccc(NS(=O)(=O)c2cc(Br)cc3c2N(C(=O)C2CC2)CC3)cc1	-0.11
COc1ccc(CNC(=O)c2ccc(Sc3ccccc3Cl)c([N+](=O)[O-])c2)cc1	0.99
CC1(C)CC(=O)C(C(=S)Nc2ccc(F)cc2)=C(NCc2ccccc2)C1	-1.05
COc1ccc(-c2noc(-c3ccc(OC)c(OC)c3)n2)cc1OC	-0.54
CCOC(=O)c1ccc(NC(=O)CC2SC(=Nc3ccc(OC)cc3)NC2=O)cc1 (centres undefined)	-0.17
CCOC(=O)c1sc2ncnc(N)c2c1C	-0.07
COC(=O)C(C(=O)NCC1CCCO1)C1CCCC1 (centres undefined)	0.19
O=C(CSc1nc2ccccc2c(=O)n1Cc1ccc2c(c1)OCO2)NCC1CCCO1 (centres undefined)	1.3
COc1cc(Cl)c(C)cc1NC(=O)c1cc(S(=O)(=O)N2CCCCCC2)ccc1F	-0.25
CS(=O)(=O)N(Cc1ccccc1)c1ccc(C(=O)Nc2ccc(CC#N)cc2)cc1	1.16
Cc1ncc(CO)c2cc(C(=O)Nc3cccc(C(F)(F)F)c3)c(=Nc3ccccc3)oc12	-0.15

# Arranged by value in Measles inh (low to high): some entries from above
Molecule	Measles inh
CCCC(=O)Nc1ccc2oc(-c3cccnc3)nc2c1	-0.94
COc1cc(Cl)c(C)cc1NC(=O)c1cc(S(=O)(=O)N2CCCCCC2)ccc1F	-0.25
COC(=O)C1=CN(C2CC2)C=C(C(=O)OC)C1c1ccc(OC)cc1OC	1.57

# Continuation.
Molecule	Measles inh
Oc1c(CN2CCCCC2)cc(Br)c2cccnc12	0.27
CCc1ccc(N=Cc2ccccc2)cc1	-0.11
COc1ccccc1C(=O)Nc1ccc(S(=O)(=O)N2CCCCC2c2cccnc2)cc1 (centres undefined)	-0.52
O=C1C2CCCCC2C(=O)N1c1ccc(Oc2ccc(Br)cc2)cc1 (centres undefined)	0.19
CC1Oc2ccccc2N(C(C)C(=O)O)C1=O (centres undefined)	-0.17
Cc1ccc(N=Cc2c(O)cc(C)c(Cl)c2C)cc1C	0.02
Cc1c(C)n(CC(O)CNc2ccc(I)cc2)c2ccccc12 (centres undefined)	-0.66
CCCOC(=O)C(C)Oc1ccc2c(=O)c(Oc3ccc(CC)cc3)coc2c1 (centres undefined)	0.69
O=C(NC1CCCC1)c1ccc(Sc2ccc(F)cc2)c([N+](=O)[O-])c1	-0.73
COCCOC(=O)C1=C(C)NC2=C(C(=O)CC(C)(C)C2)C1c1cc2c(cc1[N+](=O)[O-])OCO2 (centres undefined)	0.26
CCC(=O)N1CCc2cc(S(=O)(=O)CCC(=O)Nc3cc(C(F)(F)F)cc(C(F)(F)F)c3)ccc21	1.11
O=C(CSc1nc2c([nH]c3ccccc32)c(=O)n1-c1ccc(Cl)cc1)N1CCc2ccccc21	-0.92
Cc1cccn2c(Nc3ccccc3)c(-c3ccccn3)nc12	0.4
CC(C)C(C(=O)Nc1ccc2c(c1)OCCOCCOCCOCCO2)N1C(=O)c2ccccc2C1=O (centres undefined)	-0.64
CCOC(=O)c1nn(-c2ccc(Cl)cc2)c(=O)c2c(NC(=O)CCC3CCCC3)scc12	-1.53
COc1ccc(N2CCN(CCCNC(=O)Nc3ccccc3)CC2)cc1	-0.13
N#CCNC(=O)c1ccc([N+](=O)[O-])cc1Cl	0.32
CCSc1ncnc2sc3c(c12)CCC(C)C3 (centres undefined)	-0.74
Cc1cccc(C)c1NS(=O)(=O)c1cccc2nsnc12	-0.11
C=CCNC(=O)c1c[nH]c2ccc(S(=O)(=O)N(C)c3ccc(Cl)cc3)cc2c1=O	-0.07
CCOC(=O)c1c(C)oc2c(Br)cc(NS(=O)(=O)c3ccccc3)cc12	-0.16
Cc1ccc2nc(-c3ccc(Cl)cc3)c(Nc3ccc4c(c3)OCCO4)n2c1	1.37
O=C(Nc1ccc(-c2nc3ccccc3o2)cc1)c1cncc(Br)c1	0.27
CCOC(=O)CSc1nc(Nc2ccc3c(c2)OCO3)c2ccccc2n1	0.5
COc1ccc(C(=O)Nc2ccc3oc(-c4cccc5c(Br)cccc45)nc3c2)cc1	0.13
C=CCN(C(=O)c1ccc(N2CC3CC(C2)c2cccc(=O)n2C3)c([N+](=O)[O-])c1)c1ccccc1 (centres undefined)	-0.58
O=C(c1scc2c1CCCC2)N1CCCC1	0.81
Cc1sc2ncnc(SC3CCCCN(C(=O)c4ccc(F)cc4)C3=O)c2c1C (centres undefined)	-0.06
CCc1ccc(NS(=O)(=O)c2ccc3[nH]cc(C(=O)NCCC4=CCCCC4)c(=O)c3c2)cc1	1.22
COc1ccc(C=Nc2c(C)n(C)n(-c3ccccc3)c2=O)cc1	0.61
c1coc(CNc2ncnc3c2sc2nc(N4CCOCC4)c4c(c23)CCCC4)c1	0.21
COc1cc(Oc2ccccc2)nc(N)n1	-0.2
Cc1nc2ccccc2c2ccccc12	-0.3
CC(=O)Oc1ccc(-c2nc3ccc(OC(C)=O)cc3c(=O)o2)cc1	-0.11
O=C(O)CCCC(=O)c1ccccc1	0.74
COc1ccc2nc3sc(C(=O)Nc4cccc(SC)c4)cc3cc2c1	-1.04
CN1C(=O)C(CCC(=O)O)NC1=S (centres undefined)	-0.08
COc1ccc(NS(=O)(=O)c2ccc3c(c2)CCN3C(C)=O)cc1Cl	2.52

# An excerpt from above in order of formula weight, smallest number first.
Molecule	Measles inh
O=[N+]([O-])c1ccc(OCC(O)CNCC2OCCc3ccccc32)cc1 (centres undefined)	0.33
CCOC(=O)CSc1nc(Nc2ccc3c(c2)OCO3)c2ccccc2n1	0.5
Cc1cc(C)cc(-n2c(=O)c3sccc3n(CC(=O)Nc3ccccc3C)c2=O)c1	-0.78
